High-throughput results (PubChem BioAssay)
Autofluor counter: counter-screen for toxin protease inhibitors: compound fluorescence; AID 624483; compound autofluorescence counterscreen, microsphere flow cytometry; hits give high values; fluorescence intensity (no concentration beside the values); 3.1% of 360,000 active;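 active means at least 3 SD above the mean of all compounds, about 16000 in these data; inconclusive means too few beads counted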;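 further: 100 nL of 1 mM stock went into each well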
RN4220 kill: kills Staphylococcus aureus RN4220 | S. aureus RN4220 growth, OD600, 16 h | inhibition, % (test concentration not listed) | 0.33% of 330,000 active | AID 1259311;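 active means z-score of -3 or lower and OD600 up to 0.18 on both plates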;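 further: plate controls were untreated cells for no effect and reference antibiotic for full effect; stock transfer was 100 nL into about 80 µL; one replicate is shown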
Mtb hypoxia rep: inhibitors of hypoxia-regulated fluorescent reporter in Mycobacterium tuberculosis; M. tuberculosis hypoxia-regulated fluorescent reporter, fluorescence; fluorescence inhibition, % (test concentration not listed); 0.1% of 300,000 active;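 active means 35 to 45% if threefold the growth effect, above 45% if 1.5-fold the growth effect; inactive means the rest, general growth blockers included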;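 further: wells of about 50 µL received 100 nL stock; 0% = vehicle wells and 100% = reference inhibitor wells; whole bacteria with a GFP reporter of the hypoxia response; strong numbers were not always called active; many hits fall short of the cut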
PrP UTR inh: inhibition of PrP 5' UTR reporter expression; cell-based PrP 5' UTR mRNA reporter, plate reader; inhibition, % (concentration not given with the values); 0.35% of 340,000 active; AID 488862;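 active means every replicate at 50% or more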;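 further: 0 = median of the neutral control wells; tested in H4 reporter cells; numbers are from one replicate; inactives centre near -14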
BJeLR lethal: BJeLR cell viability loss. BJeLR (HRASV12) viability, CellTiter-Glo ATP luminescence, 48 h; reference of the scale not given here. inhibition, % (no concentration beside the values). 0.17% of 300,000 active. AID 1554;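 active means replicate mean above 50%; inconclusive means above 50% but judged a plate artefact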;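 further: 50 nL library stock added to about 25 µL; numbers are from one replicate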
Sa ugtP lethal: kills S. aureus RN4220 lacking UgtP | S. aureus RN4220 ugtP deletion, OD600 growth, 16 h; some inactives read as strong as hits | growth inhibition, % (no concentration beside the values) | 0.54% of 330,000 active;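 active means z-score under -3 and OD600 up to 0.15 on both plates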;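 further: plate controls were untreated wells for no effect and antibiotic for full effect; wells of about 80 µL received 100 nL stock; the first replicate is given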
Mtb hypoxia rep growth: further read-out of Mtb hypoxia rep, marked with its call; growth inhibition, %; measured here: M. tuberculosis growth (absorbance);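 0% = vehicle and 100% = reference antibiotic; read after six days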
* = called active by the depositor; ? = inconclusive; · = no result given.

SMILES	Autofluor counter	RN4220 kill	Mtb hypoxia rep	Mtb hypoxia rep growth	PrP UTR inh	BJeLR lethal	Sa ugtP lethal
COc1ccc(S(=O)(=O)NCCSCc2ccco2)cc1C	8601	7.9	11	7	-24	0	4
COCCCNC(=O)C(=O)Nc1cc2c3c(c1)CCC(=O)N3CCC2	5227	2.0	3	9	-10	5	5
COc1cccc(NC(=O)CN(C)C(C)C(=O)Nc2ccc(C#N)cc2)c1 (configuration not stated)	3360	9.4	11	7	-2	5	1
CCOc1ccc(NC(=O)Cn2c(=O)oc3cc(Cl)ccc32)cc1	3041	2.5	9	4	-78	8	6
O=c1oc2ccccc2c(O)c1/C=C1\C=Nc2ccccc21	3739	37	10	8	-20	-3	29
CC1(C)N=C2C(=NO)CCCC2=[N+]1[O-]	·	5.9	7	-2	·	·	-6
CCNS(=O)(=O)c1ccc(CCC(=O)NCCC2=CCCCC2)cc1	2628	8.5	8	5	-14	-12	7
Cc1oc(-c2ccccc2F)nc1CS(=O)CC(=O)NCCN1CCCCC1C (configuration not stated)	5840	-0.8	1	4	-41	5	0
Cc1ccc(C(=O)N2CCN(C(=O)c3ccco3)CC2)cc1NC(=O)c1ccco1	2502	-1.5	-8	-3	-9	-6	-2
CC1C2CC(C(S(=O)(=O)N3CCOCC3)C2=O)C1(C)C (configuration not stated)	4659	3.3	-3	1	9	-1	1
Cc1cccc(S(=O)(=O)NNC(=O)Cc2cccn2C)c1	4632	5.4	-1	-9	-6	-2	3
Cc1ccc(S(=O)(=O)N2CCCCC2CCNC(=O)C(=O)NC2CC2)cc1 (configuration not stated)	?	·	·	·	0	0	·
CS(=O)(=O)C1=NSC2=NC(=O)/C(=C\c3cccn3-c3ccccc3Cl)C(=N)N21	2501	10	4	-14	-11	1	7
COc1ccc(NC(=O)CN2CCc3ccccc3C2)cc1OC	4271	1.3	0	1	-1	2	6
CNC(=O)C(C)NS(=O)(=O)c1ccc(F)cc1 (configuration not stated)	21451*	3.2	3	1	-47	9	5
Cc1cc(O)c(C(C[N+](=O)[O-])c2ccc(Cl)cc2Cl)c(=O)o1 (configuration not stated)	17730*	3.0	4	-2	-8	-5	-1
O=C(O)c1ccc(/C=N/NC(=O)C(O)(c2ccccc2)c2ccccc2)cc1	3055	·	·	·	0	-8	·
CCOc1ccc(NC(=O)CCS(=O)(=O)c2ccc3c(c2)CCCN3C(=O)CC)cc1	10520	2.1	-2	-1	-8	-5	-2
Cc1ccc(S(=O)(=O)NCCN=C(CN2CCOCC2)NS(=O)(=O)c2ccc(C)cc2)cc1	8760	6.2	14	9	-24	·	2
Cc1cc([N+](=O)[O-])nn1CC(=O)Nc1ccc(F)cc1	5333	8.7	-2	2	-10	4	4
CC(=O)Nc1cccc(NC(=S)Nc2cccc3ccccc23)c1	5128	-1.6	4	3	-37	-9	-1
COc1ccc(NC(C)=O)cc1NC(C)C(=O)Nc1ccc(F)cc1 (configuration not stated)	4193	-2.5	·	·	-3	-11	7
O=C(CCN1N=C(c2ccccc2)CCC1=O)NC1CCCC1	5510	3.2	-5	3	-25	-4	2
O=C(Nc1c(-c2ccccc2)nc2sccn12)c1ccccc1	6914	6.0	17	2	-13	-3	12
Cc1ccc(CS(=O)(=O)CCC(=O)NCc2ccccc2Cl)cc1	5640	0.6	1	5	2	-6	0
Cc1ccc(C(=O)N/C(=C/c2cccs2)C(=O)NCC2CCCO2)cc1 (configuration not stated)	3321	-0.7	6	-2	-17	-10	-1
COCCn1c(Cc2ccccc2)nnc1SCC(=O)NC(C)(C)C	8229	1.5	4	0	-9	-5	-2
O=Cc1ccc(-c2ccc([N+](=O)[O-])cc2Cl)o1	2765	5.5	2	11	-5	·	1
Cc1cccc(NC(=O)C2CCCN2C(=O)Oc2ccccc2)c1C (configuration not stated)	4084	1.6	·	·	-19	-4	-4
COc1ccc(-c2sc3ccc(OC)cc3c2-c2ccc(OC)c(F)c2)cc1	3463	-6.0	1	5	-20	·	56
C[C@@H](C(=O)OCC(=O)c1ccccc1)N1C(=O)C2CCCCC2C1=O (some centres not stated)	5558	2.6	-14	0	·	·	-1
O=C(NCc1ccccc1)C1CCN(S(=O)(=O)c2ccc(Cl)cc2)CC1	3734	5.8	12	1	-25	-4	4
CCCCCCn1c(=O)c(C(=O)N/N=C/c2cccc(F)c2)c(O)c2ccccc21	2028	·	·	·	-5	-17	·
CCOC(=O)C1=CC(=O)CC(C)(C)O1	3848	3.5	7	6	-14	·	4
O=C1CS/C(=N/N=C2CCCC2)N1	1954	5.2	12	9	-11	2	6
CCCCNC(=O)/C=C/c1cccs1	2059	2.6	·	·	-31	-5	-1
CCOc1ccc(-n2c(SCC(N)=O)nnc2-c2cccnc2)cc1	4688	-0.4	4	0	-14	-8	8
Cc1cc(NC(=O)COc2cccc(C)c2C)no1	5714	1.0	5	1	-20	-7	9
CCOC(=O)c1c(S(=O)(=O)NCC(=O)N2CCN(c3ccc(OC)cc3)CC2)c(C)n(C)c1C	3916	4.4	1	3	-2	0	7
Cc1sc(NC(=S)NC(=O)C(C)(C)C)c(C(N)=O)c1C	11948	-3.6	-4	12	-25	-2	-4
CCOC(=O)C1C2COc3ccc(Br)cc3C2N2C(=O)N(c3ccc(OC)cc3)C(=O)[C@@]12C (some centres not stated)	·	6.7	0	9	·	·	0
Cc1ccc(S(=O)(=O)N2CCN(C(=O)CC(C)n3nc(C)c(Cl)c3C)CC2)cc1C (configuration not stated)	6749	7.1	2	10	-20	12	0
COCCCN1C(=O)C(=O)/C(=C(/O)c2ccc(S(=O)(=O)N3CCOCC3)cc2)C1c1ccc(F)cc1 (configuration not stated)	6848	1.8	-2	1	-3	4	-2
O=C(c1csc(Nc2ccccc2Cl)n1)N1CCCC1	9306	1.7	5	12	-50	2	-3
COc1ccccc1NC(=O)C1=C(C)Nc2ncnn2C1c1ccccc1C (configuration not stated)	·	2.8	2	-1	-2	-2	-5
Nc1c(Sc2ccccc2)c(=O)[nH]c(=O)n1Cc1ccccc1	10384	3.0	2	2	-24	5	-6
O=C(Oc1ccc(Cl)c(Cl)c1)C1=CC=CN2CCS(=O)(=O)N=C12	·	2.0	7	5	-18	·	1
CC(SC(=S)N(C)Cc1cccs1)C(=O)O (configuration not stated)	2282	4.2	1	3	-21	-6	15
CN1CCN(c2ccc([N+](=O)[O-])cc2C(=O)c2ccc(Br)cc2)CC1	23704*	4.0	4	10	-32	-3	2
CCCCCCNCc1cccc(Br)c1	10388	4.9	·	·	-35	1	-3

Part of the list above with just RN4220 kill and Mtb hypoxia rep:
molecule	RN4220 kill	Mtb hypoxia rep
Nc1c(Sc2ccccc2)c(=O)[nH]c(=O)n1Cc1ccccc1	3.0	2
CC(SC(=S)N(C)Cc1cccs1)C(=O)O (configuration not stated)	4.2	1
O=C(Oc1ccc(Cl)c(Cl)c1)C1=CC=CN2CCS(=O)(=O)N=C12	2.0	7
Cc1ccc(S(=O)(=O)N2CCN(C(=O)CC(C)n3nc(C)c(Cl)c3C)CC2)cc1C (configuration not stated)	7.1	2

Additional results follow:
SMILES	Autofluor counter	RN4220 kill	Mtb hypoxia rep	Mtb hypoxia rep growth	PrP UTR inh	BJeLR lethal	Sa ugtP lethal
CCOC(=O)c1ccccc1NC(=O)Cn1cnc2c(cnn2-c2ccccc2)c1=O	2932	2.1	3	6	0	-17	0
O=C(c1ccc(Sc2cccc(Cl)c2)c([N+](=O)[O-])c1)N1CCN(c2ccccn2)CC1	4380	-0.9	6	7	-7	-10	11
CCOc1cc(CNc2ccc(O)cc2)ccc1OCc1ccc(Cl)cc1Cl	3053	·	·	·	-12	5	·
O=C(Cc1cccs1)N1CCN(S(=O)(=O)c2cccc([N+](=O)[O-])c2)CC1	6053	7.6	10	7	-48	18	17
Cc1ccc(CN2CCNC(=O)C2CC(=O)N(C)C2CCCCC2)o1 (configuration not stated)	2111	2.5	16	5	-57	-6	14
COc1ccc(OC)c(C2c3[nH]c4ccccc4c3C[C@H]3C(=O)N(CCCOC(C)C)CC(=O)N23)c1 (some centres not stated)	3891	-0.5	10	6	-22	-8	7
COc1ccc(NC(=O)CC2CC3CCC2C3)cc1S(=O)(=O)N1CCOCC1 (configuration not stated)	3874	3.4	9	5	-13	·	8
Cc1ccc(NC(=O)N(CCCN2CCOCC2)Cc2cc3cc4c(cc3[nH]c2=O)OCO4)cc1	4387	8.4	4	11	-23	10	9
Cc1cc(C)cc(C(=O)C=C2NC(=O)CS2)c1	·	1.0	2	1	·	·	-9
Nc1nonc1C(=O)NCCNCc1cc(Br)ccc1OCc1ccccc1F	4394	-1.9	2	-2	-22	11	-14
O=C1N/C(=N/S(=O)(=O)c2ccccc2)S/C1=C/c1cccnc1	2060	6.8	3	6	-27	-3	2
CCOC(=O)CSc1nnc(CNc2ccc(F)cc2)o1	4339	4.6	7	7	-9	-6	7
O=C(NC1CC2CCCC(C1)N2C(=O)Nc1ccc(Cl)c(C(F)(F)F)c1)C1CC1 (configuration not stated)	3448	-0.7	3	3	-20	-7	-7
COc1ccc(CCNC(=O)C2CC(c3cccc([N+](=O)[O-])c3)=NO2)cc1 (configuration not stated)	3757	5.3	8	15	-47	8	3
CCCC(CCC(=O)OC)(C(=O)OCC)c1csc(N)n1 (configuration not stated)	6929	0.2	-2	9	-25	0	-3
Cc1ccc(-n2c(SCC(=O)Nc3cc(C)on3)nc3c(c2=O)SC(C)C3)cc1 (configuration not stated)	5440	-3.8	10	6	-8	-10	4
COc1ccc(-c2nnc(NC(=O)c3ccc(S(=O)(=O)N4CCc5ccccc5C4)cc3)o2)cc1	4538	-2.9	4	10	31	76*	99*
Cc1c(Cl)c([N+](=O)[O-])nn1CC(=O)NC(C)C1CC2CCC1C2 (configuration not stated)	3498	-2.9	·	·	4	-4	-2
COc1cc(Cn2ccnc2)c(OC)cc1Cn1ccnc1	7776	5.7	8	0	-6	-16	10
CCC(=O)c1ccc(OCC(=O)Nc2cccc(S(=O)(=O)N3CCCCCC3)c2)cc1	·	2.4	5	-3	-12	·	1

Individual results from the entries so far.
RN4220 kill, Cc1ccc(-n2c(SCC(=O)Nc3cc(C)on3)nc3c(c2=O)SC(C)C3)cc1 (configuration not stated) : -3.8
Autofluor counter, Cc1c(Cl)c([N+](=O)[O-])nn1CC(=O)NC(C)C1CC2CCC1C2 (configuration not stated) : 3498

Other structures follow.
SMILES	Autofluor counter	RN4220 kill	Mtb hypoxia rep	Mtb hypoxia rep growth	PrP UTR inh	BJeLR lethal	Sa ugtP lethal
Cc1ccc2c(c1)C(=O)CC(c1ccccc1)S2 (configuration not stated)	2710	6.4	21	12	-60	·	19
Nc1nc(SCC(=O)Nc2ccc(Cl)c(S(=O)(=O)N3CCOCC3)c2)n[nH]1	6232	-0.7	1	-5	-12	-1	1
COC(=O)c1cnc(Oc2c(Cl)cc(N)cc2Cl)cc1C(F)(F)F	·	-5.0	0	6	-12	3	-7
Cc1cc2nc[nH]c2cc1[N+](=O)[O-]	2570	0.8	7	-2	-17	9	-1
COc1ccc(OC)c(-c2csc(NC(=O)C3=NNC(=O)CC3)n2)c1	5048	7.4	-2	-1	-6	-5	0
CNCc1ccccc1Sc1ccc(OC)cc1	2455	1.9	·	·	-6	2	2
COc1ccc(-c2ccc(CCC(=O)O)n2-c2ccc(O)cc2)cc1	4565	6.0	13	1	-31	2	5
Cc1ccc(CNc2ncc(-c3ccccc3)n2C)o1	4543	2.8	0	3	-29	5	2
Cc1ccc(SCCN2CCN(C)CCC2=O)cc1	4036	4.0	4	5	-12	-7	-9
CC(=O)c1c(C)[nH]c(C(=O)CN2C(=O)NC(C)(c3ccc4c(c3)OCO4)C2=O)c1C (configuration not stated)	?	-0.4	4	3	-15	-7	-1
COc1cc(NC(=O)c2ccc(OCc3c(C)noc3C)c(OC)c2)cc(OC)c1	7022	1.7	-13	2	-6	·	-2
CCn1cc(CN2CCC(n3nccc3NC(=O)c3ccc4c(c3)OCO4)CC2)c(C)n1	5956	-1.0	5	-3	-8	2	3
Cc1ccc(NCc2nc3ccccc3n2CCOc2ccccc2)cc1	3512	30	12	3	-61	0	-19
